Vaccinia Venus – qHTS for Stage-Specific Inhibitors of Vaccinia Orthopoxvirus: Venus Reporter Primary qHTS; Potency, µM (series often up to 36.5 µM), for inactives: top-dose activity change, negative = inhibition, actives largely listed as inhibitors; Vaccinia virus Venus reporter expression, fluorescence; 330,000 tested, 0.46% active; active means well fitted inhibition curve with a large enough effect; inconclusive means small, poorly fitted or top-dose-only effect; inactive means no such curve, though single readings can be large or run the other way; tested in A549 cells; also: nearly all actives have a fitted effect of over 30% in size; inactives centre near -10
VACV mCherry inh – qHTS for Stage-Specific Inhibitors of Vaccinia Orthopoxvirus: mCherry Reporter Primary qHTS | Vaccinia virus mCherry reporter infection, fluorescence; about a quarter of the inactives have no number | Potency, µM (series often up to 36.5 µM), without a hit: at the top dose activity change, negative = inhibition, usual class: inhibitors | 310,000 tested, 0.63% active | AID 720579, 2013; active = well fitted inhibition curve with a large enough effect; inconclusive = small, poorly fitted or top-dose-only effect; inactive = no such curve, though single readings can be large or run the other way; tested in A549 cells; also: nearly all actives have a fitted effect of over 35% in size; inactives centre near -10
Numbers without * were called inactive; i = inactive; ? = inconclusive; / = no result given; & = joins results of further samples; [ ] = dose if it differs, or a comment. % is scaled to controls: 0 for no effect and ±100 for the full control effect; potency is read from the fitted curve at half-maximal effect.

SMILES,Vaccinia Venus,VACV mCherry inh
Cc1ccc(C)c(Cn2c(=O)n(CCCC(=O)NCCc3ccc(Cl)cc3)c(=O)c3ccccc32)c1,?,?
CC1(Oc2ccccc2)CCN(Cc2csc3ccccc23)C1 (stereo not given),0.2%,-0.3%
O=C1OC(/C=C/c2ccccc2)=NC/1=C\c1cccnc1,-8.0%,i
CC1CCc2sc(C(=O)N(C)CC(=O)Nc3ccc(N4CCOCC4)cc3)cc2C1 (stereo not given),-10.3%,-17.5%
COc1cccc(C(C(=O)NC2CCCC2)N(C(=O)c2ccco2)c2ccc(C(C)=O)cc2)c1OC (stereo not given),-5.5%,i
C[C@]12c3[nH]c4cc(-c5ccco5)ccc4c3CCN1C(=O)[C@@H](CC(=O)NCc1cccc(C(F)(F)F)c1)C[C@@H]2C(=O)N1CCCCC1,?,11.2µM*
Cc1nn(C)cc1C(N)=O,-7.7%,/
Cc1cc(C)n(-c2nc3ccccc3c(=O)n2OCC(=O)OCc2ccccc2)n1,?,/
CCCc1ccc(-c2ccc(C(=O)O)cc2)nc1,-3.0%,-7.8%
Cc1ccc(C(=O)CCC(=O)N2CCN(C/C=C/c3ccccc3)CC2)cc1,-15.3%,-2.5%
O=C(N/N=C/c1ccc(OC(=O)c2ccccc2Br)cc1)c1ccccn1,?,-22.6%
O=c1c2ccccc2[nH]c(=S)n1CCCN1CCN(c2ccccc2)CC1,7.3%,?
COc1ccc(-n2c(SCC(=O)c3c(N)n(C)c(=O)n(C)c3=O)nc3ccccc32)cc1,2.0%,/
Cn1cc(Br)c(C(=O)NNC(=O)c2ccc(Cl)cc2)n1,2.3%,i
C[C@@H]1COc2cc(N3CCC[C@H]3CO)ccc2S(=O)(=O)N1,4.0%,0.7%
O=C(CCSCCc1ccccn1)Nc1ccc(Cl)cn1,-8.9%,-15.7%
CN(CCO)c1cccc2c1S(=O)(=O)N[C@@H](Cc1ccccc1)CO2,0.9%,9.2%
CN1C(=O)NC(c2ccc(O)cc2)C2=C1CN(c1ccc(O)cc1)C2=O (stereo not given),6.9%,-19.0%
COc1ccc(S(=O)(=O)N2CCC(C(=O)NCCC(=O)Nc3ccccc3OC)CC2)cc1,-24.8%,i
O=[N+]([O-])c1cccc(-c2csc(Nc3ccccc3)n2)c1,?,?
CC(C)C(C)(C#N)NC(=O)CSc1nnc(C(F)(F)F)n1C (stereo not given),3.1%,/
Cc1nc(N2CCCC2)c2c(C(=O)Nc3ccc(Br)cc3F)c(C)oc2n1,-14.0%,-22.3%
COc1ccc(C(=O)NCCNc2nc3cc(C)cc(C)c3cc2C#N)nc1,-0.1%,-4.3%
COCCNC(=O)C(c1ccc(C)cc1)N(CCOC)C(=O)CCC(=O)Nc1ccccn1 (stereo not given),-4.5%,-13.4%
CCC1(c2ccccc2)NC(=O)N(CC(=O)Nc2cc(S(=O)(=O)N3CCCCCC3)ccc2OC)C1=O (stereo not given),?,-22.5%
O=C(Nc1ccc2c(c1)CCC2)c1ccccc1,-23.0%,-10.7%
S=c1[nH]nc(SCc2ccccc2)c2[nH]cnc12,-3.7%,-5.0%
CCC(=O)Nc1ccc2c(c1)ncn2-c1ccccc1OC,-15.1%,/
Clc1ccc(-c2c[n+]3c(n2-c2ccccc2)SCC3)cc1,-17.0%,i
Oc1ccc2ccccc2c1CNc1cnc2ccccc2c1,-25.7%,i
COc1ccc(OC)c(S(=O)(=O)N2CCCC(C(=O)N3CCCC3)C2)c1 (stereo not given),-18.8%,-16.4%
C=CC[C@@H](CC(=O)NCCO)C(=O)NC[C@H](OC(=O)[C@@H](CC=C)CC(=O)OC(C)(C)C)c1ccccc1,-12.4%,i
Cc1cc(C)cc(N(CC(=O)NCCSCc2ccco2)S(C)(=O)=O)c1,-14.7%,-6.4%
COCCn1c(SCC(=O)NNC(=O)c2ccccc2)nc2ccccc21,-5.2%,-11.7%
Cc1nc2cc(-c3ccc(Cl)cc3)nn2c(NCCN(C)C)c1C,-20.2%,?
O=C(NCc1ccc(F)cc1Cl)C1CCN(S(=O)(=O)N2CCC3(CC2)OCCO3)CC1,-6.8%,-2.7%
CCCc1nnn(S(=O)(=O)c2ccc([N+](=O)[O-])cc2)c1CCC,-6.8%,-2.0%
CC(C)(c1ccccc1)c1ccc(OCCN)cc1,-4.5%,i
O=C(NNS(=O)(=O)c1ccc([N+](=O)[O-])cc1)c1ccc([N+](=O)[O-])cc1,-7.0%,-24.3%
CC(C)(C)[C@H]1COC(=O)CCC/C=C/C[C@H](CC(=O)N(CCO)Cc2ccccc2)C(=O)N1,-15.4%,-19.7%
Oc1cccc(Nc2ncnc3sc4c(c23)CCCC4)c1,?,?
COc1ccc(C(=O)COC(=O)CCc2nc3ccccc3[nH]c2=O)cc1Br,-5.2%,-3.3%
O=C(Nc1ccc(-c2nnc(-c3ccccc3)o2)cc1)C(F)(F)F,-9.2%,i
COCCN1CCN(C(=O)c2sc3ncnc(NCC4CCCO4)c3c2C)CC1 (stereo not given),-13.2%,-20.0%
O=C(NCCCNC(=O)c1cc(Cl)ccc1Cl)c1ccco1,-3.8%,-6.6%
COc1cc(-c2noc(C)c2C#Cc2ccccn2)cc(OC)c1OC,?,-12.2%&-4.4%
CCOC(=O)c1sc(NC(=O)CC2OC(=O)c3ccccc32)nc1C (stereo not given),-10.5%,-14.3%
CCN1C(=O)CSC1=Nc1cccc(C(=O)O)c1,0.3%,-9.1%
CCOc1ccc2nc(N(CCN(C)C)C(=O)c3ccc4c(c3)CCCC4)sc2c1,-20.2%,-9.9%
CN(C(=O)c1cccc(NC(=O)Cc2cccc(NC(=O)C3CCCN(C(=O)C4CCCCC4)C3)c2)c1)C1CC1 (stereo not given),-6.9%,-21.1%

Some values from the results shown.
Cc1cc(C)cc(N(CC(=O)NCCSCc2ccco2)S(C)(=O)=O)c1 @ VACV mCherry inh = -6.4%
O=C(NNS(=O)(=O)c1ccc([N+](=O)[O-])cc1)c1ccc([N+](=O)[O-])cc1 @ VACV mCherry inh = -24.3%

Continuation:
SMILES,Vaccinia Venus,VACV mCherry inh
Cn1c(C(=O)NCC2CCCO2)cc2oc3ccccc3c21 (stereo not given),-20.0%,/
O=C(CCNC(=O)N1CC(=O)Nc2ccccc21)NCc1cccc(C(F)(F)F)c1,-14.6%,-4.6%
O=C(CSc1nc2ccccc2o1)N1CCN(C(=O)c2ccco2)CC1,-9.9%,-24.0%
COc1ccccc1N1CCN(S(=O)(=O)c2ccc([N+](=O)[O-])cc2)CC1,1.0%,?
Cc1ccc(C)c(NC(=O)CN(C)C(=O)Cc2ccccc2)c1,3.9%,-9.4%
CCOc1ccc(NC(=O)c2sc(NC(C)=O)c(C(=O)OC)c2C)cc1,0.3%,6.1%
CC(C)OC(=O)NCCOC(=O)Nc1ccccc1Cl,-11.9%,i
CN1CCC(NCCC(c2ccc(F)cc2)c2ccc(Cl)cc2)CC1 (stereo not given),11.2µM*,?
O=C1CCC(C(=O)Nc2ccccc2)N1 (stereo not given),-15.7%,-20.4%
CCOC(=O)[C@]12CCC=C1N(Cc1ccco1)C(=O)[C@H](CC(=O)NCc1cccs1)C2,7.8%,39.4%[activator]
Cc1c(Cl)cccc1NC(=S)NN1CCOCC1,-1.4%,/
Cc1ccc([C@@H]2C[C@H]3[C@@H](CN2S(=O)(=O)c2ccc(Cl)cc2)C(=O)C[C@@H](c2ccc(Cl)cc2)N3S(=O)(=O)c2ccccc2C)cc1,-11.7%,i
CN(Cc1ccccc1)c1ccc(/C=C/c2ccnc3ccccc23)cc1,-10.8%,-25.7%
COc1cccc(CNc2nc(NCc3ccccc3)nc3ccsc23)c1,-24.1%,0.3%
O=C(c1cccs1)N1C[C@@H](O)[C@H](n2cc(C3CC3)nn2)C[C@@H]1c1ccc(Cl)cc1,6.7%,-4.8%
O=C(O)c1nn(-c2ccccc2)ccc1=O,-12.6%,-17.6%
Cc1ccc(/C=C/C(=O)OCC(=O)NCCN2C(=O)CSC2=O)o1,-4.2%,-3.8%
O=C(NC1CC1)C1CCN(C2CCN(C(=O)c3ccc4cccc(F)c4n3)CC2)CC1,6.2%,i
Cc1ccc(-c2csc(N(Cc3ccco3)C(=O)c3cccs3)n2)cc1,-18.3%,-5.0%
CCc1c(C)sc(NC(NC(C)=O)(C(=O)OC)C(F)(F)F)c1C#N (stereo not given),-7.7%,-14.3%
CCOC(=O)C1=C(C)NC2=C(C(=O)CC(C)(C)C2)C1c1coc2ccccc2c1=O (stereo not given),-8.3%,-14.8%
CC(C)(C)OC(=O)N(CCc1ccccc1)Cc1ccccc1OCc1cccc(NC(=O)C2CCC2)c1,-18.9%,-5.6%
C=CCN(CC(=O)NC1CCS(=O)(=O)C1)S(=O)(=O)c1ccccc1C(F)(F)F (stereo not given),-9.1%,-7.8%
COc1ccc(C(=O)NCCCNC(=O)c2ccccn2)cc1,-10.4%,-10.8%
Cc1cc(C(=O)COC(=O)c2ccc(NC(=O)CC#N)cc2)c(C)n1C1CC1,2.2%,-14.8%
CC(NC(=O)c1ccc(OC2CCN(C(=O)c3cccnc3)CC2)cc1)C1CC1 (stereo not given),-7.2%,i
Cc1nnc(C)n1/N=C/c1cccc([N+](=O)[O-])c1,-2.0%,0.0%
Cc1ccc(N)cc1O,-2.9%,-14.5%
Cc1ccc(C(=O)NCC(c2ccc(F)cc2)N2CCOCC2)s1 (stereo not given),-8.1%,-11.1%
CCOc1ccc(NC(=O)C2CCC(CNS(=O)(=O)c3ccc(Br)s3)CC2)cc1 (stereo not given),2.5%,-0.6%
Cc1ccsc1/C=C/c1ccc2ccccc2n1,-9.3%,-17.7%
Cc1ccc(N2CCN(C(=O)c3nn(C)c4c3CSc3ccccc3-4)CC2C)cc1 (stereo not given),1.2%,-9.4%
COc1cc(OC)c([C@H]2C=C(C)[C@H]3C[C@@H]2C3(C)C)c(OC)c1,-4.2%[7.34 µM],-0.5%[7.34 µM]
COCCNC(=O)CSc1nc2cc3c(cc2c(=O)n1Cc1ccc(C(=O)NCCc2ccc(OC)c(OC)c2)cc1)OCO3,-18.1%,-16.5%
Cc1cc(C)cc(NC(=O)CCCn2c3ccccc3c(=O)c3ccccc32)c1,?,?
COc1ccc([C@@H]2CC=C(C(=O)O)[C@H](c3ccc(Cl)cc3)N2S(=O)(=O)c2ccc(C)cc2)cc1OC,-10.0%,i
O=C(NCc1ccc(F)cc1)c1ccc(N2CCc3ccccc32)c([N+](=O)[O-])c1,-16.2%,-4.8%
CC(=O)N1c2ccccc2C2(C)C(C1(C)C)C2(Cl)Cl (stereo not given),-3.8%,2.0%
Cc1cccn2c(=O)nc(SCC(=O)NCc3ccc(F)cc3)nc12,-9.8%,-9.3%
CCOc1ccc(N2CC(C(=O)NCc3ccccn3)CC2=O)cc1 (stereo not given),11.4%,0.6%
CCOC(=O)N1CCN(CC(=O)Nc2ccc(C)cc2)CC1,-14.7%,i
CC(=O)c1ccc(N2CCN(C(=S)Nc3ccc(Cl)c(Cl)c3)CC2)cc1,-11.9%,-1.2%
Cc1ccc(-c2nc3sc(C#N)c(N)n3c(=O)c2C#N)cc1,0.8%,i
COc1ccccc1N(C(=O)c1ccco1)C(C(=O)NC1CCCC1)c1cccnc1 (stereo not given),-15.0%,/
O=C(COC(=O)C1=COCCO1)NC1CCCCCCC1,-0.9%,i
CCN(C(=O)[C@@H]1CCCN1C(=O)c1cccs1)c1nc2cc(Cl)ccc2s1,-15.8%,-11.5%
COc1ccc(NC(=S)NC2CC3CCC(C2)N3Cc2ccco2)cc1 (stereo not given),-15.8%,-4.3%
CC(=O)NC(Cc1c[nH]c2ccccc12)C(=O)NCCc1ccccn1 (stereo not given),-0.4%,i
COc1ccc(-c2c(C#CC(C)(C)O)c3ccccc3n2C)cc1,-19.3%,-2.2%
Cn1c(O)c(/C=N/NC(=O)c2cc3ccccc3cc2O)c2ccccc21,?,7.94µM*

Next structures follow.
SMILES,Vaccinia Venus,VACV mCherry inh
O=C(NC1CCN(S(=O)(=O)c2ccccc2F)CC1)c1ccco1,-2.8%,-3.6%
S=C(NC1CCCC1)N1CCN(c2ncccn2)CC1,-3.3%,-14.2%
CCOC(=O)c1c(CC(C)C)csc1NC(=O)COC(=O)c1ccc(O)cc1,-2.3%,-8.0%
O=C(c1cccc(C(=O)N2CCN(c3ccccc3F)CC2)n1)N1CCN(c2ccccc2F)CC1,-16.0%,-20.4%
COCCNC(=S)NCCCNc1nc2cc3c(cc2cc1C#N)OCO3,-2.5%,-10.1%
N#CCC(=N)N1CCN(c2ccc(Cl)cc2)CC1,-3.6%,/
Cc1ccccc1N(CC(=O)NC1CCCCC1)C(=O)CCCC(=O)Nc1ccccn1,7.3%,-1.1%
CCOc1ccc2nc(SCC(=O)N3CCN(C(=O)c4ccco4)CC3)sc2c1,-15.3%,/
COc1ccc(-n2cnc3cc([N+](=O)[O-])ccc32)cc1,-2.0%,i
CCCCCCn1c(=O)[nH]c2nc3cc(N)c(C)cc3nc2c1=O,117.0%[activator],?

Source: PubChem BioAssay
